Screening data as filed in PubChem BioAssay.
Mtb H37Rv: Confirmatory growth inhibition assay against Mycobacterium tuberculosis H37Rv, potency (AID 1949) | 100,000 tested, 1.6% active | one-dose inhibition, % at 10 µg/mL; IC50 in µg/mL for titrated hits | most inactive calls were filed without a number and no value below 0 was filed;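 active = confirmed in a dose series; inconclusive = about 50% or more but not retested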;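 note: bacteria grown 7 days with compound before Alamar blue readout; 0% = untreated bacteria and 100% = reference antibiotic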
Numbers without * were called inactive; i = inactive; u = inconclusive.

SMILES | Mtb H37Rv
O=C(COc1ccccc1F)Nc1nc(-c2ccc(S(=O)(=O)N3CCOCC3)cc2)cs1 | i
O=C(Nc1ccccc1C(=O)N1CCCC1)c1ccc(Cl)cc1Cl | i
Cc1cc(I)ccc1S(=O)(=O)NCc1ccccc1 | i
CC(C)(O)C#Cc1ccc(C(=O)NC(C(=O)O)c2ccccc2)s1 (stereo not drawn) | i
O=Cc1ccc(OC(=O)c2ccccc2Cl)c(Cl)c1 | i
Cc1ccc(C2C(C#N)=C(N)Oc3n[nH]c(C)c32)c(C)c1 (stereo not drawn) | 2.0%
O=C(CCCOc1ccccc1)NC12CC3CC(CC(C3)C1)C2 | 35.7%
O=C(CN1C(=O)c2cccc3cccc1c23)N1CCN(Cc2ccc3c(c2)OCO3)CC1 | i
COC(=O)C1=CN(C2CC2)C=C(C(=O)OC)C1c1ccc(OC)cc1OC | i
COc1ccccc1C1/C(=C(\O)c2ccc(C)cc2)C(=O)C(=O)N1CCCC(=O)O (stereo not drawn) | i
CN(C)c1cccc(NS(=O)(=O)c2ccccc2)c1 | 4.4%
CC1=C(C(=O)Nc2ccc(Cl)cc2)C(c2cccc(F)c2)n2nc(CCCO)nc2N1 (stereo not drawn) | i
O=C(Nc1ccccc1)Nc1ccc2c(c1)C(=O)OC2 | i
Cc1ccc(CNC(=O)c2ccc(N(Cc3ccccc3)S(C)(=O)=O)cc2)cc1 | i
Nn1ccnc1SCc1nc2ccccc2c(=O)n1-c1ccccc1Cl | i
Cc1onc(-c2ccccc2Cl)c1C(=O)N1CCCCC1C(=O)O (stereo not drawn) | i
Cc1c(CCC(=O)O)c(=O)oc2c(C)c(OCc3ccc(Br)cc3F)ccc12 | 0.1%
CCOC(=O)N1CCN(C(=O)CN2C(=O)/C(=C/c3ccc(C(C)C)cc3)SC2=S)CC1 | i
COc1ccc(NC(=O)CN(C)S(=O)(=O)c2cc(Cl)ccc2Cl)cc1OC | i
CCOC(=O)c1c(-c2ccc(OC)cc2)csc1NC(=O)CCc1ccccc1 | i

Remaining list, next part.
SMILES | Mtb H37Rv
COC(=O)c1cc(OC)c(OC)cc1NC(=O)c1ccccc1I | i
COc1cc(NC(=S)NC(=O)c2sc3ccccc3c2Cl)ccc1NC(=O)C(C)C | i
CCOC(=O)c1ccc(NC(=O)CSc2nc(N)c3c4c(sc3n2)CCCC4)cc1 | i
CCc1ccc(CNc2ccc(NC(C)=O)cc2)cc1 | i
COc1cc([N+](=O)[O-])ccc1NC(=S)NC(=O)Cc1ccccc1 | 0.1%
CCc1ccc(N(CC(=O)Nc2cccnc2)S(C)(=O)=O)cc1 | i
CCNC(=O)C1(c2ccccc2)CCCC1 | i
Cc1cc(C)nc(NC(=O)C(C)Oc2ccc(Cl)cc2Cl)n1 (stereo not drawn) | i
COc1cc([N+](=O)[O-])ccc1NC(=S)N1CCN(C(=O)C2CCCO2)CC1 (stereo not drawn) | i
O=C(Nc1ccc(Br)cc1)N1CCCCC1 | i
O=C(CSc1nnc(-c2ccccc2)o1)N1CCN(c2ccccc2)CC1 | i
CC1(Cc2ccc(Br)cc2)C(=O)OC(c2ccc(Cl)cc2)C(C)(C)C1=O (stereo not drawn) | 13.4%
Cc1ccc(O)c(NC(=S)NC(=O)C(C)C)c1 | 46.7%
COc1cc([N+](=O)[O-])cc2cc(C(=O)Nc3ccccc3Oc3ccccc3)c(=O)oc12 | 22.5%
COc1ccccc1Oc1ccc(S(=O)(=O)N2CCOCC2)cc1S(=O)(=O)N1CCOCC1 | i
O=C(Cc1cccc2ccccc12)NC(=S)N1CCc2ccccc21 | u
Brc1ccc(C2CC(c3ccco3)n3ncnc3N2)cc1 (stereo not drawn) | u
Cc1ccccc1C(=O)Nc1ccc(-c2nc3ccc(C(=O)c4ccccc4)cc3[nH]2)cc1 | u
O=C(Nc1cccc([N+](=O)[O-])c1)C1CC(=O)N(c2ccccc2Cl)C1 (stereo not drawn) | i
CC(N)C1COc2ccccc2O1 (stereo not drawn) | i

(next part)
SMILES | Mtb H37Rv
Cc1ccc(SCCC(=O)NC2CCCC2)cc1 | 1.4%
O=S(=O)(/N=C(\Nc1cccc(OC(F)(F)C(F)Cl)c1)C(F)(F)F)c1ccccc1 (stereo not drawn) | i
CCC(=O)Oc1ccc2c(=O)c(-c3nc4ccccc4s3)c(C)oc2c1C | 0.6%
CCN(CC)S(=O)(=O)c1ccc(NS(=O)(=O)c2cc(OCC(N)=O)c(C)cc2Cl)cc1 | i
O=C(Cc1ccc(F)cc1)n1nnc2ccccc21 | i
CC(Oc1cccc(Cl)c1)C(=O)Nc1ccc2ccccc2c1 (stereo not drawn) | i
Cc1nn(Cc2ccc(Cl)c(Cl)c2)c(C)c1NC(=O)Nc1cccc(Cl)c1Cl | i
Cc1cccc(NC(=S)NC(=O)/C=C/c2ccccc2)c1 | i
COc1ccc(S(=O)(=O)Nc2ccc(S(=O)(=O)Nc3cccc(C(F)(F)F)c3)cc2)cc1OC | 5.4%
O=C(CN(c1ccc(Br)cc1)S(=O)(=O)c1ccccc1)NC1CCCCCC1 | i
O=[N+]([O-])c1ccc(NC(=S)NCCc2ccc(Cl)cc2)cc1 | u
O=C(c1ccc(COc2ccccc2Br)o1)N1CCN(c2ccccn2)CC1 | i
Cc1ccc(OCC(=O)Nc2ccccc2C(N)=O)cc1 | i
COCCCNCCCCOc1ccccc1-c1ccccc1 | i
C=CCN(CC=C)S(=O)(=O)c1ccc(NC(=O)C2CCCCC2)cc1 | 2.4%
COC(=O)Cc1c(C)c2cc(Cl)c(OCc3ccccc3)cc2oc1=O | 3.7%
CC(C)Oc1ccc(CNCC2(O)CCOC(C)(C)C2)cc1 (stereo not drawn) | i
Cc1cc(/C=C(/C#N)c2ccc(Br)cc2)c(C)n1C | 1.9%
C=CCC1N(c2ccccc2Cl)C(=O)C2C(C(=O)O)C3C=CC21O3 (stereo not drawn) | i
COc1ccc(-c2nc3cc(C(C)C)ccc3o2)cc1NC(=O)c1cc(OC)c(OC)c(OC)c1 | i

(further entries)
SMILES | Mtb H37Rv
CC(C)(C)CNC(=O)c1ccccc1O | i
CCOC(=O)Cc1csc(NC(=O)c2ccccc2SCC)n1 | i
COc1ccc(NC(=O)c2ccc(C)o2)c([N+](=O)[O-])c1 | i
CC(C(=O)Nc1cccc(N(C)S(C)(=O)=O)c1)N(c1ccc(Oc2ccccc2)cc1)S(C)(=O)=O (stereo not drawn) | i
COc1cc(CNCCc2c[nH]c3ccccc23)cc(OC)c1OC | i
CCOc1ccc(C(=O)Nc2cc(Cl)ccc2OC)cc1Cl | i
Cc1cc(Br)ccc1OCCN1CCCCC1 | i
COc1ccccc1CNC(=O)CSCc1ccccc1C | 0.1%
CCCCc1nc(SCC(=O)Nc2ccccc2OC)n[nH]1 | i
COc1ccc(NC(=S)NCCSc2ccc(C)cc2)c(OC)c1 | i
CCOc1ccc(NC(=S)N2CCC(C(N)=O)CC2)cc1 | i
O=C(CC12CC3CC(CC(C3)C1)C2)N1CCN(C(=O)CC23CC4CC(CC(C4)C2)C3)CC1 | 0.8%
O=c1[nH]c(/C=C\c2ccccc2OCc2ccccc2F)c([N+](=O)[O-])c(=O)[nH]1 | i
CCOC(=O)N1CCc2c(sc(N)c2C(N)=O)C1 | i
Cc1nc(N)sc1-c1csc(Nc2ccc(Cl)cn2)n1 | i
CCOc1ccc(OCC)c(S(=O)(=O)Nc2cccnc2)c1 | i
O=C(NC(=S)NC1CCCCC1)c1ccc(-c2ccccc2)cc1 | 25.9%
COc1ccc(OC)c(C2NC(=S)NC(C)=C2C(=O)Nc2ccccn2)c1 (stereo not drawn) | i
Cc1ccc2oc(Nc3nc(-c4ccccc4)cc(=O)[nH]3)nc2c1 | u
Cc1cc(=O)c2c(o1)CC(C)(C)CC2=O | i

The list continues.
SMILES | Mtb H37Rv
CCOC(=O)C1CCN(S(=O)(=O)c2ccc(OC)c3ccccc23)CC1 | i
COc1ccc(S(=O)(=O)Nc2ccccc2C(C)C)cc1Br | i
CCC1C=CCC(C(=O)O)C1C(=O)Nc1ccc(C(=O)N2CCOCC2)cc1 (stereo not drawn) | i
COc1cc(C(=O)Nc2ccc(C)cc2)c2ccccc2n1 | i
Cc1c(NC(=O)c2ccc(N3CCCC3)c([N+](=O)[O-])c2)cccc1-c1nc2ccccc2o1 | i
COC(=O)c1ccc(NC(=O)c2cc(C)oc2C)cc1 | i
COC(=O)c1sc(NC(=O)c2cc(Br)cc(C)c2OC)c(C#N)c1C | 0.9%
CCN(CC)S(=O)(=O)c1ccc(NC(=S)NC(=O)c2ccccc2Br)cc1 | i
Cc1cc2c(cc1C)NC(c1c(C)n(C)n(-c3ccccc3)c1=O)C1=C(CC(C)(C)CC1=O)N2 (stereo not drawn) | i
CC1(C)Oc2ccc(NC(=O)c3ccco3)cc2O1 | 5.9%
N#CCCN1CCN(C(=S)c2ccc(-c3cccc(Cl)c3)o2)CC1 | 0.5%
Cc1cc(C(C)(C)C)cc(S(=O)(=O)Nc2ccccc2)c1C | i
CCOC(=O)c1c(NC(=O)c2ccc(Cl)cc2Cl)sc(C(=O)Nc2ccc(OC)cc2)c1C | i
Cc1nc2ccccc2n1CCCOc1ccc(Cl)cc1 | 4.87µg/mL*
COc1ccccc1-c1cc(C(F)(F)F)n2ncc(C(=O)N3CCc4ccccc4C3)c2n1 | u
Cc1ccc2c(CC(=O)NCc3ccco3)coc2c1C | i
CC(=O)c1cccc(NC(=O)Nc2cnn(Cc3ccc(F)cc3)c2)c1 | i
CCOc1c(Cl)cc(C(=O)O)cc1OC | i
COc1cc(C(=O)N2CCCC(c3ccccc3)C2)cc(OC)c1OC (stereo not drawn) | i
CCC(C)(C)NC(=O)C1c2ccccc2Oc2ccccc21 | i

(more compounds)
SMILES | Mtb H37Rv
Fc1ccc(NC(=S)N2CCc3ccccc3C2)cc1 | 1.1%
CCOc1ccccc1C(=O)Nc1nc(-c2ccccc2)c(C)s1 | i
Cc1sc(-n2c(C)cc(C=O)c2C)c(C(=O)O)c1C | i
S=C(NC1CCCC1)N1CCc2ccccc2C1 | 3.5%
CCOc1ccc(NC(=S)N2CCC(Cc3ccccc3)CC2)cc1 | i
COc1cc(S(=O)(=O)N2CCOCC2)c(OC)cc1Br | i
Cc1cc(C)n(-c2ncnc3sc4c(c23)CC(C)CC4)n1 (stereo not drawn) | 1.8%
CCOC(=O)NC(=S)Nc1cccc(C(F)(F)F)c1 | i
COC(=O)c1ccccc1NC(=O)CNC(=O)c1cccs1 | i
CC(CCC(N)=O)C(=O)c1ccccc1 (stereo not drawn) | i
COC(=O)COc1ccc(S(=O)(=O)N2CCc3ccccc3C2)cc1Cl | i
COC(=O)Cc1c(C)c2ccc(OC/C=C/c3ccccc3)c(C)c2oc1=O | i
O=C1Nc2ccc(Br)cc2C12SCCS2 | i
O=S1(=O)N=C(Nc2ccccc2I)c2ccccc21 | i
O=C(NCCc1ccccc1F)c1ccc(C#Cc2ccccc2)cc1 | i
CCOc1nc(Nc2nc(-c3ccccc3)cs2)nc(OCC)n1 | 2.4%
COC(=O)c1cccc(NC(=O)CCCOc2ccc(OC)cc2)c1 | i
Cc1cc(C(=O)N2CCN(C/C=C/c3ccccc3)CC2)no1 | i
CC1CCCCC1NS(=O)(=O)c1ccc(F)cc1 (stereo not drawn) | i
O=C(NCC1CCCO1)C(=O)Nc1cccc(Br)c1 (stereo not drawn) | i

A second format for some results above.
Cc1sc(-n2c(C)cc(C=O)c2C)c(C(=O)O)c1C
  Mtb H37Rv: i

S=C(NC1CCCC1)N1CCc2ccccc2C1
  Mtb H37Rv: 3.5%

CCOc1ccc(NC(=S)N2CCC(Cc3ccccc3)CC2)cc1
  Mtb H37Rv: i

COc1cc(S(=O)(=O)N2CCOCC2)c(OC)cc1Br
  Mtb H37Rv: i

Next section.
SMILES | Mtb H37Rv
CC1=C(C(=O)Nc2ccccc2)C(c2ccco2)C(C#N)=C(SCC(=O)Nc2ccccc2Cl)N1 (stereo not drawn) | i
O=C(NC(=S)Nc1ccc2oc(-c3cc(F)c(F)cc3Cl)nc2c1)c1ccco1 | i
CC(=O)c1ccccc1OC(=O)COc1ccc(Br)cc1 | 1.7%
CCOc1ccc(C(=O)NCCc2ccc(F)cc2)cc1OCC | i
CCOc1ccc(C(=O)Nc2ccc(F)cc2F)cc1[N+](=O)[O-] | i
O=C(c1ccccc1)c1ccccc1C(=O)N1CCN(c2ccccc2)CC1 | 1.9%
O=C(Oc1ccc2c(=O)c(-c3ccc(Cl)cc3Cl)c(C(F)(F)F)oc2c1)C1CCCO1 (stereo not drawn) | 1.1%
Cc1ccc(-n2c(SCC(=O)Nc3ccccc3Br)nc3ccccc3c2=O)cc1 | 2.9%
CCCOc1ccc(N2C(=O)CC(N3CCC(c4nc5ccccc5s4)CC3)C2=O)cc1 (stereo not drawn) | i
Cc1cc(C)c2c(N)c(C(=O)Nc3ccccc3F)sc2n1 | i
O=C(O)CSc1nnc(-c2cccs2)n1-c1cccc(C(F)(F)F)c1 | i
COc1ccccc1NC(=O)c1cc(N)cc(C(=O)Nc2ccccc2OC)c1 | i
COc1ccc(S(=O)(=O)Nc2nccs2)cc1OC | 4.6%
CC(C)(C)c1ccccc1NC(=O)c1ccccc1Br | 23.6%
COC(=O)C1=C(C)NC2=C(C(=O)CC(c3ccc(F)cc3)C2)C1c1ccc(C)s1 (stereo not drawn) | i

Reprinted from the entries so far for reference:
SMILES | Mtb H37Rv
CC1=C(C(=O)Nc2ccccc2)C(c2ccco2)C(C#N)=C(SCC(=O)Nc2ccccc2Cl)N1 (stereo not drawn) | i
O=C(NC(=S)Nc1ccc2oc(-c3cc(F)c(F)cc3Cl)nc2c1)c1ccco1 | i
CC(=O)c1ccccc1OC(=O)COc1ccc(Br)cc1 | 1.7%

Not all compounds are listed (hit frequency here may not be typical).
